Compound activity: PubChem BioAssay, several laboratories
Autofluor counter = compound fluorescence in toxin protease inhibitor counterscreen; compound autofluorescence counterscreen, microsphere flow cytometry; active compounds read high; fluorescence intensity (concentration not given with the values); 3.1% of 360,000 active; AID 624483;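 active means at least 3 SD above the mean of all compounds, about 16000 in these data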;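 further: 100 nL of 1 mM stock went into each well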
PrP 5UTR inh = suppresses PrP 5' UTR mRNA reporter expression; cell-based PrP 5' UTR mRNA reporter, plate reader; inhibition, % (test concentration not listed); 0.35% of 340,000 active;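 active means every replicate at 50% or more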;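 further: 0 = median of the neutral control wells; tested in H4 reporter cells; numbers are from one replicate; inactives centre near -14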
Sa ugtP lethal = growth inhibition of S. aureus ugtP deletion strain; growth inhibition, % (no concentration beside the values); 0.54% of 330,000 active; S. aureus RN4220 ugtP deletion, OD600 growth, 16 h; some inactives read as strong as hits;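 active means z-score under -3 and OD600 up to 0.15 on both plates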;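 further: plate controls were untreated wells for no effect and antibiotic for full effect; wells of about 80 µL received 100 nL stock; the first replicate is given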
Mtb hypoxia inh = inhibitors of hypoxia-regulated fluorescent reporter in Mycobacterium tuberculosis; M. tuberculosis hypoxia-regulated fluorescent reporter, fluorescence; fluorescence inhibition, % (no concentration beside the values); 0.1% of 300,000 active; AID 1159583;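 active means 35 to 45% if threefold the growth effect, above 45% if 1.5-fold the growth effect; inactive means the rest, general growth blockers included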;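 further: wells of about 50 µL received 100 nL stock; 0% = vehicle wells and 100% = reference inhibitor wells; whole bacteria with a GFP reporter of the hypoxia response; strong numbers were not always called active; many hits fall short of the cut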
BJeLR lethal = BJeLR cell viability loss. BJeLR (HRASV12) viability, CellTiter-Glo ATP luminescence, 48 h; reference of the scale not given here. inhibition, % (test concentration not listed). AID 1554. 0.17% of 300,000 active;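 active means replicate mean above 50%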;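 further: 50 nL library stock added to about 25 µL; numbers are from one replicate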
Sa RN4220 lethal = S. aureus RN4220 growth inhibition. OD600, 16 h. inhibition, % (test concentration not listed). 0.33% of 330,000 active;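 active means z-score of -3 or lower and OD600 up to 0.18 on both plates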;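 further: plate controls were untreated cells for no effect and reference antibiotic for full effect; stock transfer was 100 nL into about 80 µL; one replicate is shown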
Mtb hypoxia inh growth = also measured in Mtb hypoxia inh; calls as there; growth inhibition, %; measured here: M. tuberculosis growth (absorbance);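 0% = vehicle and 100% = reference antibiotic; read after six days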
* hit, by the source's call; . = not tested or not shown; & = joins results of further samples.

SMILES	Autofluor counter	PrP 5UTR inh	Sa ugtP lethal	Mtb hypoxia inh	Mtb hypoxia inh growth	BJeLR lethal	Sa RN4220 lethal
C=CCn1cccc(C(=O)Nc2cc(OC)ccc2OC)c1=O	2626	-1.3	-0.2	-1.5	7.0	0.5	5.3
CC(=O)NC(CC(=O)NCC(=O)Nc1ccc(F)c(F)c1)c1ccccc1 (stereo not drawn)	3507	-9.3	-1.7	-17.2	4.6	-21.9	-0.1
c1ccc(Nc2cccc(Nc3ccccc3)c2)cc1	3467	-59.7	-21.1	-1.5	2.4	-13.0	-16.3
O=C(c1ccccc1)N1CCC(=O)N(C(CO)Cc2ccccc2)CC1 (stereo not drawn)	2818	-5.5	-12.0	12.1	12.5	-2.8	2.6
Cc1ccc(NC(=O)CCn2c(=O)c3cccn3c3ccccc32)cc1C	5044	-9.4	0.4	6.8	4.3	7.8	-1.0
COC(=O)c1sc(-c2ccccc2)cc1NC(C)=O	3237	-12.6	8.7	9.7	2.5	-7.7	-12.4
Cc1c(OC(C)C(=O)NCc2cccnc2)ccc2c3c(c(=O)oc12)CCCC3 (stereo not drawn)	5380	-16.2	.	.	.	0.8	.
CSc1nsc(SCC(=O)NCc2ccccc2)n1	3096	-52.5	2.5	15.0	-1.5	-12.2	0.9
O=C(Cn1c(=O)oc2cccnc21)Nc1ccc(C(F)(F)F)cc1	4342	.	1.6	5.4	3.5	-17.2	5.7
CCOc1ccc(OC(=O)c2cccnc2)cc1	9188	0.8	5.3	-3.7	7.6	-9.8	3.5
COc1ccc2c(c1)c1nnc(SCC(=O)N3C(C)CCCC3C)nc1n2C (stereo not drawn)	7247	-9.4	-1.8	12.9	3.1	-4.8	2.9
CCOC(=O)C1CCCN(Cc2nc(N)nc(Nc3ccc(C)cc3)n2)C1 (stereo not drawn)	4094	-4.8	2.2	.	.	2.9	-0.2
CCc1ccc(C2C3=C(CCCC3=O)OC3=C2C(=O)CCC3)cc1	2406	3.3	-4.6	0.6	6.1	-15.7	4.4
CCN(CC)S(=O)(=O)c1ccc(N2CCOCC2)c(NC(=O)C2CCCO2)c1 (stereo not drawn)	4102	-5.1	6.0	-4.7	-3.1	11.6	3.9
CCCn1c(=O)c(C(=O)NNC(=O)Cc2ccccc2)c(O)c2ccccc21	5662	-5.5	4.0	-5.6	-8.8	1.7	19.5
C/C(CC(=O)Nc1cc(Cl)ccc1Cl)=N\NC(=O)c1ccco1	4813	-26.3	.	.	.	0.3	.
CCn1nc(C)c(/C=N/NC(=O)Cn2nc(C)cc2C)c1C	2162	-7.4	.	.	.	-4.4	.
c1ccc(-c2nc(NC3CCCC3)c3ccccc3n2)cc1	3569	-9.6	4.2	12.8	2.7	0.8	-2.6
Cc1[nH]nc2c1C1(C(=O)N(Cc3ccc(Cl)cc3)c3ccccc31)C(C#N)=C(N)O2 (stereo not drawn)	7315	-57.2	-22.1	5.6	9.3	0.9	14.9
COC(=O)c1ccccc1NC(=S)N(C)C	6297	-13.9	4.4	10.7	6.0	0.4	4.1
O=C(NC1CCCCC1)N1CCCC(c2nc(-c3cccs3)no2)C1 (stereo not drawn)	3569	-9.9	9.8	3.7	-1.3	2.5	5.8
COCCNCCOCCOc1ccc(Cl)c(C)c1	.	-18.2	-7.8	8.2	6.6	-7.1	-15.7
O=C(NCc1ccccn1)[C@H]1C[C@@H]1[C@H](NP(=O)(c1ccccc1)c1ccccc1)c1ccccc1	2700	-5.1	.	.	.	-2.8	.
COc1cc(/C=C/C(=O)N2C(=O)c3cccc(N)c3C2=O)cc(OC)c1OC	2652	-18.9	.	.	.	-1.0	.
CCOc1ccc2oc(C(=O)O)c(C)c2c1	5699	-20.9	12.6	7.9	8.0	-4.9	1.3
COc1ccc(C(=O)NC(CCSC)C(=O)N2CCCCCC2)cc1 (stereo not drawn)	4281	-12.8	4.7	5.4	-1.3	-2.0	2.4
Cc1c(Cl)cnc(NC(=O)COC(=O)c2ccc3c(c2)OCO3)c1Cl	2543	-6.9	-7.6	12.7	0.0	10.0	7.0
COc1ccc(-c2csc(Nc3ccc(C)cn3)n2)cc1OC	4486	-46.5	16.0	-0.7	2.0	9.8	-14.8
COCCCN1C(=O)c2ccc(C(=O)OCC(=O)NCCc3ccccc3)cc2C1=O	6092	-10.0	10.8	-1.7	-3.6	6.7	2.1
Cc1cccc(NC(=O)c2ccc([N+](=O)[O-])cc2Cl)n1	2469	-12.3	2.2	6.7	5.2	4.6	-2.7
COC(=O)C(CCSC)NC(=O)CNC(=O)C1CCCCC1 (stereo not drawn)	4654	-11.7	6.7	4.9	-1.2	-9.6	0.3
CN(C)S(=O)(=O)c1cccc(NC(=S)NCc2ccc3c(c2)OCO3)c1	4097	-16.7	2.5	11.9	4.6	5.4	0.6
C/C(N)=C(/C#N)C(=O)CSc1nnc(SCc2ccc(Cl)cc2)s1	4114&3495	-14.0&-21.3	3.8&9.4	6.4	9.4	18.0	1.4&-0.3
Cc1cccc([N+](=O)[O-])c1NC(=O)CSc1nnc2ccccn12	4657	.	3.7	7.9	2.5	.	2.5
Cc1nn(Cc2ccc(Cl)cc2)c(Cl)c1C=NNC(=O)c1cccnc1	.	.	0.7	-7.0	0.9	.	1.2
Cc1c(N=Cc2c(O)n(CCc3ccc(F)cc3)c(=O)[nH]c2=O)c(=O)n(-c2ccccc2)n1C	8038	-13.1	0.3	6.0	4.6	5.0	6.2
CC1=NN(C)C(=O)C1Cc1c(F)cccc1Cl (stereo not drawn)	4383	-11.7	3.1	4.5	3.0	3.3	3.3
CC(=O)Oc1ccc2occ(-c3ccccc3)c2c1	3707	-18.0	1.7	1.8	0.5	0.0	6.6
Cc1ccc(C)c(NC(=O)CCC(=O)NN=Cc2ccc3c(c2)OCO3)c1	.	.	-3.0	8.7	11.9	.	3.6
COc1ccccc1N1CCN(S(=O)(=O)CCNC(=O)c2ccc(OC(C)C)cc2)CC1	6173	-5.6	0.5	4.6	10.8	4.6	0.8
COc1ccc(NS(=O)(=O)c2ccc(Oc3cccc(C(=O)O)c3)cc2)cc1	4486	-8.4	13.7	7.6	2.5	-3.2	4.7
CCNS(=O)(=O)c1ccc(CCC(=O)N2CCN(c3ccccc3F)CC2)cc1	3106	-22.2	9.0	12.5	0.4	-2.3	3.5
COc1ccccc1CNC(=O)CCCN1C(=O)NC2(CCCC2)C1=O	6072	-10.0	13.1	3.9	-3.0	.	1.6
O=C(NC1(C(F)(F)F)C(=O)Nc2c1c(=O)[nH]c(=O)n2Cc1ccco1)C1CC1 (stereo not drawn)	4615	4.6	-1.7	-12.0	5.1	1.6	1.9
COCC(=O)N/N=C/c1c(C)[nH]n(-c2ccccc2)c1=O	3607	-29.8	.	.	.	0.2	.
Cc1c(C(=O)N2CCN(c3cccc(Cl)c3)CC2)cccc1[N+](=O)[O-]	2562	-11.1	10.3	9.1	7.8	-8.5	-0.6
S=c1[nH]ccn1-c1c(Cl)cccc1Cl	4125	-14.3	2.6	4.5	1.1	3.7	3.8
COc1ccc2cc(C(=O)N3CCCCCC3)sc(=O)c2c1OC	4891	-11.7	6.3	.	.	-5.5	-4.3
Cc1ccc(S(=O)(=O)CCC(=O)Nc2ccccc2Br)cc1	3046	-3.3	0.4	3.6	-3.5	-2.5	1.8
C#CCOC(=O)C(NC(=O)c1ccccc1)=C(C)C	2536	-19.3	-5.6	.	.	-5.3	0.8
COc1ccc(-n2sc3c(c2=S)-c2cc(OC)ccc2NC3(C)C)cc1	2564	1.7	83.7*	.	.	-1.0	-4.7
Cc1ccc(S(=O)(=O)Nc2ccc3c(c2)CCC3)cc1	2237	-31.4	-7.3	6.9	-2.6	-2.3	1.3
Cc1cc(C)n(-c2nc3ccccc3nc2N2CCN(C(=O)c3ccc(Cl)cc3)CC2)n1	9747	-25.0	4.1	18.7	7.4	-1.3	9.2
Fc1cccc(/C=N/Nc2ncnc3nc[nH]c23)c1	5951	-22.3	.	.	.	9.8	.
Cc1cc(Cl)ccc1NC(=O)CCC(=O)N/N=C/c1cccnc1	5899	-5.9	.	.	.	6.0	.
Cc1cccc(C)c1NC(=O)COC(=O)CCc1ccc(S(=O)(=O)N2CCCCC2)cc1	2533	-12.2	-5.2	-7.7	-4.6	18.7	-5.0
COc1ccc2c(c1)c1c(n2C)C2CC=C(CO)C(C1)N2C (stereo not drawn)	.	.	-3.3	5.1	10.9	.	6.4
COc1cccc(-n2nc3c(-n4ncc(C#N)c4N)nnc(C)c3c2C)c1	5615	-36.0	7.6	11.3	11.4	-7.0	4.7
COC(=O)COc1ccc(S(=O)(=O)NCc2cccnc2)cc1C	17503*	-17.2	-0.8	0.9	-0.5	6.3	0.3
COC(=O)c1cc([N+](=O)[O-])c(-n2cncn2)c([N+](=O)[O-])c1	2583	-12.7	4.7	6.3	2.2	-6.4	4.8
Carrying on.
SMILES	Autofluor counter	PrP 5UTR inh	Sa ugtP lethal	Mtb hypoxia inh	Mtb hypoxia inh growth	BJeLR lethal	Sa RN4220 lethal
O=C(CNc1cccc2ccccc12)N/N=C/C=C/c1ccco1	4040	-24.0	.	.	.	-7.5	.
O=C(Nc1ccc(Br)cn1)c1ccc([N+](=O)[O-])cc1Cl	4457	-78.9	10.7	8.3	10.3	-0.4	-5.8
S=c1[nH]ncn1NCc1ccc(Cl)cc1Cl	4793	-23.0	6.6	14.4	-7.9	-2.4	2.4
CN(c1ccc(OCC(=O)Nc2nc(-c3ccccc3)cs2)cc1)S(=O)(=O)c1ccc(F)cc1	1971	-26.0	4.3	8.3	1.0	12.0	-0.8
Clc1ccccc1-c1nn2c(COc3ccccc3)nnc2s1	10753	.	-9.4	4.6	1.4	1.0	9.6
O=C(CN1CCCc2ccccc21)Nc1ccccc1[N+](=O)[O-]	5305	-6.1	4.3	20.0	12.6	1.6	5.0
O=C(O)c1cccc(N=Nc2c(O)[nH]c(=O)[nH]c2=O)c1	3267	-11.1	-4.1	-1.5	19.1	-13.5	-1.0
CC(=O)N1N=C(c2cccc([N+](=O)[O-])c2)OC1(C)c1cccs1 (stereo not drawn)	3929	-18.1	3.7	1.1	-1.5	-4.9	3.5
CCCC/C=C/[C@H](c1ccccc1)[C@H](CO)Cc1cccnc1	3033	-23.4	-5.9	14.4	6.6	0.7	-4.1
